# CDC25B-CDK2 inh = human CDC25B-CDK2/CyclinA binding inhibition. z-score (no concentration beside the values). AID 1259370. hit rate 0.72% among 94,000. P30305+P24941. HTRF CDC25B-CDK2/CyclinA binding, anti-His/anti-Flag; active compounds read high;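 further: score is relative to mean and SD of negative controls; strong numbers were not always called active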
# TAR Tat displ = HIV-1 TAR-Tat binding disruption. HIV-1 TAR RNA, Tat peptide displacement FRET; active compounds read high. z-score (concentration not given with the values). hit rate 0.6% among 100,000;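 further: score is relative to mean and SD of negative controls; some compounds called inactive have numbers as strong as hits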
# The depositor's hits bear a star; nt = not tested or not shown.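 How the source made its calls: active means z-score from 3 up in half or more of its runs; inactive means the rest.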
structure,TAR Tat displ,CDC25B-CDK2 inh
Cc1ccccc1CSc1nc2cccnc2n1Cc1ccc(C(=O)O)cc1,3,-0.12
CC(C)CCNc1sc(S(C)(=O)=O)nc1S(=O)(=O)c1ccc(Cl)cc1,1.9,-15
Cc1c(Sc2ccc(Cl)cc2)cnn1C(=O)Nc1ccccc1,nt,1.5
Cc1cn2c(=O)cc(COC(=O)COc3ccc(Cl)cc3)nc2s1,0.57,nt
Cc1cc(C)c2c(=O)cc(C(=O)Nc3nc4ccc(F)cc4s3)oc2c1,0.28,-0.77
Cn1c(=O)c2cn3c(c2n(C)c1=O)C(c1cccc(F)c1)Nc1ccccc1-3 (stereo not drawn),0.42,-1.6
COc1ccc(N2CCCS2(=O)=O)cc1NS(=O)(=O)c1ccc(C)c(C)c1,0.11,nt
C(#Cc1ccccc1)CN1CCN(c2ccccn2)CC1,1.5,-0.22
O=S(=O)(NCC(c1ccccc1)N1CCN(Cc2ccccc2)CC1)c1ccccc1 (stereo not drawn),1.6,-1.2
Cc1cccn2c(=O)c(C(=O)NCCCN3CCCC3=O)c(O)nc12,-0.03,-2.9
O=C(COC(=O)CCCC1=NS(=O)(=O)c2ccccc2N1)Nc1ccccc1,0.45,nt
Cc1[nH]nc(-n2cnnc2)c1NS(=O)(=O)c1cccc2nsnc12,0.19,2.4

# Single records, from the list above. Order of screens: TAR Tat displ, CDC25B-CDK2 inh
# C(#Cc1ccccc1)CN1CCN(c2ccccn2)CC1 is listed as 1.5, -0.22
# O=S(=O)(NCC(c1ccccc1)N1CCN(Cc2ccccc2)CC1)c1ccccc1 (stereo not drawn) is listed as 1.6, -1.2
# Cc1c(Sc2ccc(Cl)cc2)cnn1C(=O)Nc1ccccc1 is listed as nt, 1.5
# Cc1cn2c(=O)cc(COC(=O)COc3ccc(Cl)cc3)nc2s1 is listed as 0.57, nt

# (continued)
structure,TAR Tat displ,CDC25B-CDK2 inh
CCOCCc1nn2c(=O)cc(COC(=O)Cc3ccccc3)nc2s1,-1,nt
CN(C)c1nc(SCCOC(=O)Nc2ccccc2)nc(N(C)C)n1,-0.24,-2.1
Cn1c(=O)n(Cc2ccccc2Br)c2ccccc21,1.4,-0.64
CC1CSc2ccc(S(=O)(=O)NCCCN(C)C3CCCCC3)cc2NC1=O (stereo not drawn),0.74,nt
O=C(CCc1nc(-c2cccnc2)no1)NC1CCCCC1,0.18,-1.1
CCc1cc2c3c([nH]c2cc1S(=O)(=O)Nc1ccc(F)cc1)CCCC3=O,-0.27,nt
CC(=O)Nc1c2n(c3ccccc13)CC(C)(C(=O)NC1CCCC1)N(Cc1ccco1)C2=O (stereo not drawn),0.14,nt
CCOc1ccc2nc(NC(=O)Cc3csc(C)n3)sc2c1,-0.39,-0.68
CCS(=O)(=O)c1oc(-c2cccs2)nc1S(=O)(=O)c1ccc(F)cc1,0.26,-3.5
CC(C)(C)NC(=O)/C=C/c1cc([N+](=O)[O-])ccc1Sc1ccc(C(F)(F)F)cn1,nt,-1.7
CCN1CCN(C(=O)CN2C(=O)CSc3cccn3-c3ccccc32)CC1,0.78,nt
CC(C(=O)NC1CCCC1)n1ncn2c(cc3occc32)c1=O (stereo not drawn),1.3,-1.9
CCN(CC)c1nc(N)c([N+](=O)[O-])c(NC2CCCCC2)n1,0.02,nt
CCN1C(=O)C(O)(CC(=O)c2ccc(C)cc2)c2cc(Br)ccc21 (stereo not drawn),nt,0.33
Cc1cc(C)c(/C=C(\C#N)C(=O)c2cccs2)[nH]1,nt,-2.5
COc1ccc2cc3c(nc2c1)N(S(=O)(=O)c1ccc(F)cc1C)CC3,0.74,-0.78
Cn1c(N2CCCCC2)nc2c1c(=O)n(Cc1cccc(Br)c1)c(=O)n2C,0.41,-0.5
Cc1nn(-c2ccc(Cl)cc2)c2nc(-c3cccnc3)cc(C(F)(F)F)c12,-0.24,0.96
C=CCN(Cc1nc(-c2ccc(Cl)cc2)no1)S(=O)(=O)c1ccc(F)cc1,0.56,-1.1
Cn1c(=O)[nH]c(=O)c2c1nc(Br)n2CC(=O)c1ccccc1,nt,0.13
CCC(C)N(Cc1ccc(F)cc1)S(=O)(=O)c1ccc(S(=O)(=O)NC2CCCC2)cc1 (stereo not drawn),0.48,-0.26
CN1C(=O)Cc2cc(S(=O)(=O)CCC(=O)N3CCN(c4ccc(Cl)cc4)CC3)ccc21,-0.1,nt
O=c1oc2ccccc2n1Cc1c(F)cccc1Cl,-1.7,-2.1
COc1ccc(Nc2c(-c3ccc(O)c(OC)c3)nc3nc(C)cc(C)n23)cc1,-0.85,-3
CC1(C)Cc2ccccc2C2=C(C(=O)N3CCCCC3)C(=O)C(=O)N21,-0.02,-1.5
O=C(Nc1ccc(Cl)cc1)N1CCN(Cc2nc3cccnc3n2-c2ccccc2)CC1,1.4,nt
CCOC(=O)c1cnc(SCC(=O)c2ccc(Cl)cc2Cl)[nH]1,nt,-0.88
CCC(C)c1nn2c(=O)c(NC(=O)c3ccc(F)cc3)cnc2s1 (stereo not drawn),-1.2,0.01
Oc1ccccc1-c1nc(-c2ccc3c(c2)CCO3)n[nH]1,nt,-1.4
N#Cc1cc2c(nc1SCC(=O)Nc1ccc(S(=O)(=O)Nc3nccs3)cc1)CCCCC2,-2.1,-0.94
CC1Cc2cc(S(=O)(=O)Nc3cccc4c3CCCC4)ccc2N1C(=O)C1CCC1 (stereo not drawn),0.75,nt
Cn1cnc(S(=O)(=O)N2CCC(C(=O)NC3CCCC3)CC2)c1,1.2,nt
COC(=O)c1cc(S(=O)(=O)NCC2CN(Cc3ccccc3)CN(Cc3ccccc3)C2)oc1C,nt,1.3
CCN(CC)CCn1c(NCc2ccc(C)cc2)nc2ccccc21,0.36,-0.7
COc1cc(CN2CCN(Cc3ccccc3)CC2)cc2c1OCO2,nt,-0.25
COc1ccc2cc3c(N)nn(C(=O)CCn4c(=S)oc5ccccc54)c3nc2c1,nt,-0.09
Cc1ccc(-c2noc(CN3CCC(C)CC3)n2)cc1,-2.1,-0.7
COc1ccc(-c2cccc(NS(=O)(=O)c3cc(C)c(Cl)cc3C)c2)nn1,0.19,nt
Cc1ccc2cc(C#N)c(=O)[nH]c2c1,-0.57,-2.1
CC(C)(C)C(=O)Nc1ccccc1Cc1ccccc1,nt,-2.2
O=S(=O)(c1ccccc1)c1nnn2c1nc(NCc1ccccc1)c1ccccc12,1.4,-0.95
CCOc1ccc(C2c3c(oc4ccccc4c3=O)C(=O)N2c2nnc(C)s2)cc1 (stereo not drawn),-1.5,-2.1
C=CCN(Cc1nc(-c2cccc(C)c2)no1)S(=O)(=O)c1ccccc1,1.7,0.42
CC1=Nc2ccccc2N=C(NC(=O)CSc2ncccn2)C1c1ccccc1 (stereo not drawn),0.84,nt
CCOC(=O)C1C2C=CC3(CN(C(C)c4ccccc4)C(=O)C13)O2 (stereo not drawn),-0.87,-1.8
Cc1c(S(=O)(=O)c2ccc(C(C)(C)C)cc2)nnn1-c1cccc(F)c1,-0.04,-0.03
O=C(Cn1nc(C(F)(F)F)c2c1CCC2)Nc1ccc(-n2cccc2)c(Cl)c1,1.5,-0.2
O=S(=O)(N1CCCCC1)N1CCCN(S(=O)(=O)N2CCCCC2)CC1,-0.02,-0.64
Cc1nnc(N2CCC(C(=O)N3CCc4ccccc43)CC2)c2nn(-c3ccccc3)c(C)c12,1.6,nt
Cc1onc(-c2ccccc2)c1CN1CCS(=O)(=O)CC1,nt,0.38
COc1cc(NS(=O)(=O)c2ccc3c(c2)n(C)c(=O)c(=O)n3C)cc(OC)c1,0.57,-0.07
O=C(O)c1ccc2c(c1)C1C3CCC(C3)C1C(c1cccc(Cl)c1)N2 (stereo not drawn),0.77,-1.4
CCN(c1ccccc1)S(=O)(=O)c1ccc(-c2coc(C)n2)cc1,1.2,nt
Cc1ccc2nc(NC(=O)CCS(=O)(=O)c3ccc4c(c3)CC(C)N4C(=O)C3CC3)sc2c1 (stereo not drawn),-0.2,nt
COc1ccc(NC2c3ncccc3C(=O)N2c2ccccc2)c(OC)c1 (stereo not drawn),-2.6,nt
Cc1ccc(-c2nnc(N3CCOCC3)c3ccccc23)cc1S(=O)(=O)N(C)C,0.82,1.3
Cc1csc(NC(=O)CSc2ccc(-c3ccc(-n4ccnc4)cc3)nn2)n1,0.14,nt
CC12CN3CC(C)(CN(C1)C3c1ccc3c(c1)OCO3)C2 (stereo not drawn),nt,0.12
Clc1ccc(-c2noc(COc3cccc4ccccc34)n2)cc1,nt,-1.2
COCCSc1ncc(CO)n1Cc1ccc(Cl)cc1,0.76,nt

# Following part
structure,TAR Tat displ,CDC25B-CDK2 inh
c1cc(CNC2CCCCC2)n(-c2nnc(N3CCCC3)s2)c1,1.4,nt
Cc1c(Cl)cccc1NS(=O)(=O)c1cn(C)cn1,1.6,nt
O=C(CSc1nnc2scc(-c3ccc(Cl)cc3)n12)N1CCOCC1,3.2,-0.06
CCOC(=O)C1CCN(c2c(N3CCCCCC3)c(=O)c2=O)CC1,nt,-1.6
Cc1cccc(-c2nnc(SCCC(=O)O)o2)c1,-0.57,-1
CCN(CC)c1ccc(C2C(C(=O)OC)=C(C)NC3=C2C(=O)CC(C)(C)C3)cc1 (stereo not drawn),0.59,-2.3
O=C(O)CCCC(=O)Nc1cccc(C(=O)O)c1,nt,0.03
Cc1cc2nc(COc3ccc(Cl)c(C)c3)cc(=O)n2o1,-1.3,-1.5
O=C(O)c1ccc(NC2SC(=O)N(c3ccccc3)C2=O)cc1 (stereo not drawn),1.5,-2
Cc1oc2ncnc(N3CCOCC3)c2c1C(=O)N1CCCC1,0.63,nt
COc1cc(C2SCC(=O)N2CCc2ccccc2)cc(OC)c1OC (stereo not drawn),nt,-0.31
CC1(C)CC(=O)C(C2C3=C(CC(C)(C)CC3=O)Oc3ccccc32)C(=O)C1 (stereo not drawn),0.87,-0.28
CC(=O)n1c2c(c3ccccc31)OC(N)=C(C#N)C2c1ccc(C(C)C)cc1 (stereo not drawn),0.58,-0.15
CC12N=NCC1C(=O)N(c1cccc(Cl)c1)C2=O (stereo not drawn),-1.2,-0.87
COc1ccc(CN2C(=O)c3oc4ccccc4c(=O)c3C2c2ccc(O)cc2)cc1 (stereo not drawn),0.3,-1.3
CCC(C)(C(=O)NC1CCCCC1)N(C(=O)CC1NC(=O)NC1=O)c1ccc(C)cc1 (stereo not drawn),nt,-1.1
O=C(CSc1nc2c(c(=O)[nH]1)CCC2)Nc1cccc(Cl)c1,0.03,5.4
O=C(O)CCCC(=O)N1N=C(c2ccccc2)CC1c1cc2cc3c(cc2nc1Cl)OCCO3 (stereo not drawn),nt,-1.8
O=C1OC(c2ccccc2)=C(C(=S)Nc2ccc(Cl)cc2)C1=O,nt,0.83
CC(=O)N1c2ccc(S(=O)(=O)N(C)CC(=O)NC3CCCCC3C)cc2CC1C (stereo not drawn),-0.03,nt
CC(C)NC(=O)CSc1nc(-c2ccc(F)cc2)cc(C(F)(F)F)n1,2,0.06
CC(C)OC(=O)C(C(=O)C(F)(F)F)c1cc(NS(=O)(=O)c2ccccc2)c2ccccc2c1O (stereo not drawn),nt,-0.59
O=C(Nc1ccc2oc(-c3ccccc3)nc2c1)c1nc(-n2cnnc2)ccc1Br,2.5,nt
Nc1nc2ncc([N+](=O)[O-])cn2n1,nt,-1.4
O=C(CSc1nnc2ccc3ccccc3n12)Nc1nc2c(s1)CCCC2,0.6,-0.38
Cc1nn(-c2ccccc2)nc1C(=O)NNC(=O)NC(=O)c1ccccc1Cl,nt,0.1
O=C(NCCCN1CCCC1)C1CCN(c2nnc(-n3cccc3)s2)CC1,0.42,0.42
CCn1nc(C)c(CNC(=O)Nc2ccc(Br)cc2F)c1C,-0.13,nt
CC1CCCCN1C(=O)Cn1c(=O)n(-c2ccc(F)cc2F)c(=O)c2sccc21 (stereo not drawn),nt,-0.2
COC(=O)c1ccc(S(=O)(=O)N2CCCN(Cc3ccccc3)CC2)n1C,nt,1.6
COc1ccc(NC(=O)Nc2c(C)nc3nc[nH]n3c2=O)cc1,1.3,nt
CCOc1cc(-c2ccc(OC(=O)c3cccs3)cc2)cc(=O)c2c(C)oc(C)c12,-1.6,0.71
O=C(CCC1CCCC1)Nc1nc2ccccc2o1,0.37,nt
COC1=CC(=O)C(C(=O)c2ccccc2)=CC1=O,-0.31,nt
CCOc1ccc(/C(O)=C2\C(=O)C(=O)N(CCN(C)C)C2c2ccc(Br)cc2)cc1C (stereo not drawn),0.77,-0.02
COc1ccccc1N1CCN(S(=O)(=O)c2ccc(-c3cc(C)no3)s2)CC1,-0.52,nt

# 3 compounds picked at random from the list so far, as already listed:
structure,TAR Tat displ,CDC25B-CDK2 inh
O=C(CSc1nnc2ccc3ccccc3n12)Nc1nc2c(s1)CCCC2,0.6,-0.38
O=C(NCCCN1CCCC1)C1CCN(c2nnc(-n3cccc3)s2)CC1,0.42,0.42
O=C(CCC1CCCC1)Nc1nc2ccccc2o1,0.37,nt

# Next section
structure,TAR Tat displ,CDC25B-CDK2 inh
CCCC(=O)Nc1ccc2c(c1)COC2=O,0.56,-0.05
Cc1cccc(Nc2c(-c3ccc4c(c3)OCC(=O)N4)c(=O)c2=O)c1C,-0.83,nt
COc1cccn(CC(=O)NN)c1=O,nt,-0.12
CCN1CCN(c2c(S(=O)(=O)c3ccc(Cl)cc3)cnc3ccccc23)CC1,0.29,-0.01
Cc1nnc2c(Nc3ccc(F)cc3Cl)nc3ccccc3n12,1.2,-2.4
